Vaccinia Venus = qHTS for Stage-Specific Inhibitors of Vaccinia Orthopoxvirus: Venus Reporter Primary qHTS; Vaccinia virus Venus reporter expression, fluorescence; Potency, µM (series often up to 36.5 µM), for inactives: top-dose activity change, negative = inhibition, most hits filed as inhibitors; hit rate 0.46% among 330,000; AID 720580, 2013; active means well fitted inhibition curve with a large enough effect; inconclusive means small, poorly fitted or top-dose-only effect; inactive means no such curve, though single readings can be large or run the other way; tested in A549 cells; also: nearly all actives have a fitted effect of over 30% in size; inactives centre near -10
Vaccinia mCherry = qHTS for Stage-Specific Inhibitors of Vaccinia Orthopoxvirus: mCherry Reporter Primary qHTS; Vaccinia virus mCherry reporter infection, fluorescence; about a quarter of the inactives have no number; Potency, µM (titrated, usually from 36.5 µM), without a hit: top-dose activity change, negative = inhibition, most hits filed as inhibitors; hit rate 0.63% among 310,000; active = well fitted inhibition curve with a large enough effect; inconclusive = small, poorly fitted or top-dose-only effect; inactive = no such curve, though single readings can be large or run the other way; tested in A549 cells; also: nearly all actives have a fitted effect of over 35% in size; inactives centre near -10
* marks the source's active call; other numbers are inactive results; i = inactive; ? = inconclusive; . = no result given; & = joins results of further samples; [ ] = dose if it differs, or a comment. % is scaled to controls: 0 for no effect and ±100 for the full control effect; potency is read from the fitted curve at half-maximal effect.

compound	Vaccinia Venus	Vaccinia mCherry
NNC(=S)Nc1cc(S(=O)(=O)N2CCOCC2)ccc1N1CCOCC1	-13%	?
CC(NC(=O)c1cc2ccccc2o1)c1cccs1 (stereo not drawn)	-12%	i
O=C(Cc1ccc([N+](=O)[O-])cc1)Nc1nnc(C2CC2)s1	0%	-1%
Clc1cccc(CNc2cc(-c3ccccc3)nc3nncn23)c1	-25%	-4%
CC(C)n1c(N2CCN(C(=O)Nc3ccccc3)CC2)nc2ccccc21	-11%	-13%
COc1ccc2nc(C)cc(C(=O)O)c2c1	3%	.
CC1=CC(c2ccccc2)n2nc(NC(=O)CCCC(=O)O)nc2N1 (stereo not drawn)	-6%	-14%
CCC(c1nnc(SCC(=O)NCC2CCCO2)n1Cc1ccccc1)N(C)C (stereo not drawn)	-1%	-7%
NC(=O)NCc1ccccc1F	-7%	-1%
COc1cc(NC(=O)c2ccc3c(c2)OCCO3)ccc1NC(=O)c1cccs1	-12%	i
CCn1c(SCC(=O)Nc2cccc(C)n2)nc2c1c(=O)n(C)c(=O)n2C	-2%	i
CC(=O)Nc1ccc2nc(NC(=O)COc3ccccc3Cl)sc2c1	2%	-1%
CCOC(=O)[C@]12Cc3ccsc3[C@H]1N(Cc1ccccc1)C(=O)c1ccccc12	?	?
CCCc1ccc2oc(C(=O)N3CCCC3)c(C)c2c1	-12%	0%
COc1ccc(OC)c(CNC(=O)C2CCN(S(=O)(=O)c3ccc4[nH]c(=O)oc4c3)CC2)c1	-8%	5%
O=C(CN1CCc2ccccc2C1)NCC(=O)Nc1ccc(F)cc1	-3%	-17%
O=C(Nc1ccc(Cl)cc1)C1Cc2c(-c3ccc4c(c3)OCO4)ccnc2O1 (stereo not drawn)	-29%	?
CCC(C)c1ccc(NC(=O)COC(=O)c2nc3nccc(C)n3n2)cc1 (stereo not drawn)	-4%	-2%
CCN(CC)c1ccc(NC(=O)CN2C(=O)c3cccnc3Oc3ccc(Cl)cc32)c(C)c1	-17%	-3%
CCOC(=O)c1ccc(NC(=O)c2nc[nH]c2C(=O)N(CC)CC)cc1	-10%	-5%
CC1Sc2ccccc2N(CC(=O)N(C(C)C)C(C)C)C1=O (stereo not drawn)	5%	-3%
CCO[C@H]1OC(C(=O)NCc2ccccc2)=C[C@@H](c2ccccc2)[C@@H]1CCCO	?	-1%
CCOC(=O)N1CCN(S(=O)(=O)c2ccc(C(=O)Nc3sc4c(c3C#N)CCC4)cc2)CC1	-5%	-13%
O=C(COc1ccc(C(=O)c2ccc(F)cc2)cc1)Nc1cccc(S(=O)(=O)N2CCOCC2)c1	-18%	i
Nc1ncnc2c1ncn2[C@@H]1O[C@H](CNCc2ccccc2)[C@@H](O)[C@H]1O	-11%	-13%
COc1ccc(C(=O)NCC(=O)N/N=C/c2ccc([N+](=O)[O-])o2)cc1OC	-14%	i
NC(=O)c1cc(S(=O)(=O)N2CCOCC2)ccc1Sc1ccccc1N	-4%	i
CNC(=S)N1N=C(c2ccc(C)cc2)CC1c1cc(OC)ccc1OC (stereo not drawn)	-26%	-26%
CN(C)CCNC(=O)CN1C(=O)COc2ccc(S(=O)(=O)N3CCCC3)cc21	-1%	-3%
CCc1nc2ccc(C(=O)N(CC)CCN(C)C)cn2c1N(C)Cc1nccs1	8%	21%
O=C(O)CCCNS(=O)(=O)c1cccs1	-3%	i[1.46 µM]
C=CCn1c2ccccc2c2nnc(SCC(=O)Nc3c(C)n(C)n(-c4ccccc4)c3=O)nc21	-16%	.
COc1ccc(CNC(=O)CCn2c(=O)oc3ccccc32)cc1	-4%	-8%
O=C(Nc1cccc([N+](=O)[O-])c1)c1[nH]ncc1Cl	-19%	-3%
CC(=O)Nc1cccc(/C(C)=N/NC(=O)c2cc(-c3ccncc3)nc3ccccc23)c1	-15%	-6%
Cc1cc(C)c(NC(=O)C(=O)NCCc2csc(-c3ccc(F)cc3)n2)c(C)c1	-8%	-17%
CC(C)Oc1ccc(C2C(C#N)=C(N)Oc3c2oc(CO)cc3=O)cc1 (stereo not drawn)	-2%	-13%
C/C(=N/NC(=O)CNc1ccc(Cl)cc1C)c1ccc(C)cc1	-2%	-9%
CC1CC(C)CN(CCCNC(=O)Cc2c(C(=O)O)n(C)c3ccccc23)C1 (stereo not drawn)	-1%	-18%
CNC(=O)/C(=C\c1ccc2c(c1)OCO2)NC(=O)c1ccc(Br)cc1	-6%	i
C[C@@H]1CN([C@@H](C)CO)C(=O)CCCn2nncc2CO[C@H]1CN(C)C(=O)Cc1ccccc1	1%	i
O=C(COn1nnc2ccc(S(=O)(=O)N3CCOCC3)cc21)NCc1cccc(Cl)c1	-15%	-1%
c1ccc2[nH]c(-c3cscn3)nc2c1	-20%&-12%	-4%&-16%
CCOc1ccc2[nH]c(=O)c(CN(Cc3nnnn3Cc3ccccc3)CC3CCCO3)cc2c1 (stereo not drawn)	-3%	0%
COc1cc(C(=O)NC2CCN(Cc3ccccc3)CC2)cc(Cl)c1OC(C)C	-22%	i
COc1cccc(C(=O)Nc2ccccc2OCc2cc(=O)n3ccccc3n2)c1	-8%	-8%
CCN(CC)CCNS(=O)(=O)c1ccc(C(=O)NN)cc1	-6%	-8%
Cn1cc(/C=C2\SC(=O)NC2=S)c2ccccc21	9%	?
CCN(C(=O)CCc1nc(-c2ccccc2F)no1)c1cc(OC)ccc1OC	-5%	i
CCN1CCc2c(OCC(=O)Nc3ccccc3)cccc2C1=O	-3%	i

(continued)
compound	Vaccinia Venus	Vaccinia mCherry
COc1ccc(CCNC(=O)Cn2c(=O)nc(-c3ccccc3)c3ccccc32)cc1OC	-18%	i
Cc1ccc(NC(=O)CC2SC(=Nc3ccc(O)cc3)NC2=O)cc1 (stereo not drawn)	-14%	-4%
COc1ccccc1NS(=O)(=O)c1cccc(C(=O)NCC(c2ccco2)N2CCCC2)c1 (stereo not drawn)	-14%	i
Cc1ccc(S(=O)(=O)Nc2c(O)c3ccccc3oc2=O)cc1C	-3%	-14%
CCOc1ccccc1C(=O)N[C@H](C(=O)Nc1cc(S(=O)(=O)N(C)C)ccc1OC)C(C)C	-6%	i
COc1cccc(NC(=O)CN(C)C(=O)CCNC(=O)c2ccc(Br)cc2)c1	-13%	-14%
Cc1cccc(OCc2nnc(SCC(=O)N3CCCC3)o2)c1	-18%	-15%
Cc1csc(NC(=O)CCCC(=O)O)c1-c1nc2ccccc2s1	?	?
Cc1ccc(S(=O)(=O)Nc2ccccc2C(=O)N2CCCCCC2)cc1	-7%	0%
COc1ccc(NC(=O)COC(=O)c2ccccc2SCC(=O)N2CCCC2)cc1	3%	0%
O=C(CCCn1c(=O)[nH]c2cc(Cl)ccc2c1=O)N1CCC2(CC1)OCCO2	-3%	i
Cc1ccc(NC(=O)COC(=O)CCCC2=NS(=O)(=O)c3ccccc3N2)cc1C	-14%	-21%
CCOC(=O)CNC(=O)CSc1nc(-c2ccccc2)ns1	-1%	i
Cc1cc(/C=C2\C(=O)NC(=O)N(Cc3ccccc3)C2=O)c(C)n1-c1ccc(Cl)c(C(=O)O)c1	8%	-4%
COCC(C)NC(=S)Nc1ccccc1[N+](=O)[O-] (stereo not drawn)	-10%	-4%
CCOC(=O)N1CCN(c2ccc(C(=O)CC)cc2F)CC1	-13%	.
CNC(=O)c1ccc2nc(CCc3ccccc3)oc2c1	-10%	-2%
COC(=O)C1=C(c2cc3ccccc3o2)C[C@@H]2CC[C@H]1N2C(=O)N1CCCCC1	?	-24%
CCOC(=O)N1CCN(C(=O)Nc2ccc3nc(C)sc3c2)CC1	-15%	?
COc1cccc(-c2cnc3c(NC=O)cc(-c4ccc(O)c(OC)c4)cn23)c1	-23%	-28%
C[C@@](N)(C(=O)O)c1ccc(C(=O)O)cc1	-7%	i
Cn1c(=O)c2c(ncn2CC(=O)OCC(=O)c2ccc(OC(F)F)cc2OC(F)F)n(C)c1=O	-16%	-7%
C=CC[C@H](CC(=O)NCCO)C(=O)N[C@H](COC(=O)[C@@H](CC=C)Cc1ccc(F)cc1)Cc1ccccc1	?	-6%
CCCc1nn(C)c2c(=O)[nH]c(-c3cc(S(=O)(=O)N4CCN(C)CC4)ccc3OCC)nc12	-10%&-11%	-12%
c1ccc(COc2ccc(OCCn3cncn3)cc2)cc1	-19%	-20%

Laid out differently: results already given
Value order: Vaccinia Venus, Vaccinia mCherry
- CCOC(=O)[C@]12Cc3ccsc3[C@H]1N(Cc1ccccc1)C(=O)c1ccccc12
 : ?, ?
- COc1cccc(-c2cnc3c(NC=O)cc(-c4ccc(O)c(OC)c4)cn23)c1
 : -23%, -28%
- CCc1nc2ccc(C(=O)N(CC)CCN(C)C)cn2c1N(C)Cc1nccs1
 : 8%, 21%
- CCOC(=O)N1CCN(C(=O)Nc2ccc3nc(C)sc3c2)CC1
 : -15%, ?
- O=C(COn1nnc2ccc(S(=O)(=O)N3CCOCC3)cc21)NCc1cccc(Cl)c1
 : -15%, -1%
- COc1ccc(CCNC(=O)Cn2c(=O)nc(-c3ccccc3)c3ccccc32)cc1OC
 : -18%, i
- O=C(O)CCCNS(=O)(=O)c1cccs1
 : -3%, i[1.46 µM]

Going on with the list:
compound	Vaccinia Venus	Vaccinia mCherry
O=C1C2CCCN2C(=O)N1CCN1CCN(c2cccc(C(F)(F)F)c2)CC1 (stereo not drawn)	-17%	i
Cc1c(C(=O)N2CC(C(=O)N3CCCCC3)Oc3ccccc32)oc2ccccc12 (stereo not drawn)	-5%	-8%
O=C(NC(=O)c1ccccc1O)c1ccc2c(c1)CCO2	-9%	i
Cc1ccc(CCNC(=O)c2ccc3c(c2)N(Cc2cccc(Cl)c2)C(=O)c2ccccc2S3(=O)=O)cc1	-8%	-4%
COC(=O)[C@H]1[C@H]2C[C@@H]3c4[nH]c5cc(OC)ccc5c4CCN3C[C@H]2C[C@@H](OC(=O)c2cc(OC)c(OC)c(OC)c2)[C@@H]1OC	-21%	i
CC(C)CCN(Cc1ccco1)S(=O)(=O)c1ccc(-c2ccc(=O)[nH]n2)s1	-26%	-20%
N#CC1(NC(=O)COc2cccnc2[N+](=O)[O-])CCCCC1	-8%	-14%
O=C(c1cc(Cl)nc2ccccc12)N1CCN(S(=O)(=O)c2cccc(F)c2)CC1	-8%	i
CCOC(=O)C1CCCN(S(=O)(=O)NC[C@H]2O[C@@H](n3cnc4c(N)ncnc43)[C@H](O)[C@@H]2O)C1 (stereo partly drawn)	-5%	-11%
CC(n1cnnn1)C12CC3CC(CC(C3)C1)C2 (stereo not drawn)	?	.
Cc1cccc(/N=C/c2c(O)c3ccccc3oc2=O)n1	?	.
Cc1ccc(C(=O)N2N=C(CC(C)C)CC2(O)C(F)(F)F)o1 (stereo not drawn)	-6%	i
O=C(N/N=C/c1ccc(F)cc1)c1ccncc1	-6%	-12%
CCOc1ccc(NC(=O)C(C)N2C(=O)c3ccccc3C2=O)cc1 (stereo not drawn)	-14%	-15%
CCCc1nnc(NS(=O)(=O)c2ccc(C)cc2)o1	16%	4%
COc1ccc(OCC(=O)NC2CCCc3ccccc32)cc1 (stereo not drawn)	-16%	-16%
O=C(Cn1nnc(-c2ccccc2F)n1)Nc1ccc2c(c1)OCO2	8%	3%
CCC1=C([N+](=O)[O-])C(c2ccc3c(c2)OCO3)NC(=O)N1 (stereo not drawn)	-10%	-12%
COc1ccc(S(=O)(=O)N(C)C[C@H]2Oc3ccc(NC(=O)Cn4cnnn4)cc3C(=O)N([C@H](C)CO)C[C@@H]2C)cc1	-2%	i
COc1ccc(-n2nc(C(=O)Nc3cccc(C)n3)c3c4ccccc4n(C)c3c2=O)cc1	-11%	-6%
CC1=CC(c2ccc(Cl)cc2)n2nc(NC(=O)c3ccccc3)nc2N1 (stereo not drawn)	-7%	-22%
CCCS(=O)(=O)NC(=O)C1(C)CCN(C(=O)Cc2ccc(OC)cc2)C1 (stereo not drawn)	-5%	31%[activator]
Cc1cc(-c2csc(NC(=O)c3ccccc3C(F)(F)F)n2)c(C)n1Cc1ccccc1	-1%	-2%
O=C(CC1COc2ccccc2O1)NCCc1ccccc1 (stereo not drawn)	-5%	.
O=C1NC(=S)NC(=O)C1=Cc1ccccc1C(=O)O	-14%	-17%
Cc1cc(/C=C2\SC(=O)N(CC(=O)Nc3ccccc3F)C2=O)c(C)n1C	0%	i
S=C(Nc1cccc2ccccc12)NN1CCOCC1	-2%	-10%
COc1ccc(CCNC(=O)C2CCCN2S(=O)(=O)c2cccc3nsnc23)cc1OC (stereo not drawn)	-5%[7.34 µM]	i[7.34 µM]
CC(=O)c1c(C)[nH]c(C(=O)Nc2ccc(S(=O)(=O)N(C)C)cc2)c1C	2%	-6%

Compound activity: PubChem BioAssay, National Center for Advancing Translational Sciences (NCATS)

Compounds as they come, and some 0.86% of all compounds hit somewhere here.
